gsp antagonist: qHTS for Antagonists of gsp, the Etiologic Mutation Responsible for Fibrous Dysplasia/McCune-Albright Syndrome: qHTS | gsp-mutant cells, cAMP HTRF, 30 min; control for the full effect not named in the record | Potency, µM (highest dose often 76.9 µM), without a hit: at the highest dose activity change, negative = inhibition, usual class: inhibitors | hit rate 0.4% among 340,000 | AID 624288, 2012; active = falling curve of any shape with a large fitted effect; inconclusive = falling curve, mostly with a smaller effect; inactive = flat or rising curve; cell line not stated here;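 note: intracellular cAMP measured with PDE inhibitor Ro 20-1724 present during compound exposure; potency is the fitted concentration of half-maximal effect; % is set by controls: 0 for no effect and ±100 for the full control effect; nearly all actives have a fitted effect of over 65% in size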
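HTRF cAMP read-out (cAMP-d2 plus anti-cAMP antibody-K in lysis buffer, 30 min RT). Before lysis, cells are exposed to compounds with […] for 30 min at 37C in DPBS containing Ca/Mg, BSA and Tween 20.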
TRPV1 potentiator: HTS Assay for Compounds that Act as Potentiators of the Vanilloid Receptor 1; Transient receptor potential cation channel subfamily V member 1 (Homo sapiens), Q8NER1; TRPV1-expressing cells, Fluo-8 calcium influx, capsaicin EC20 potentiation; host cell line not named in the record; control for the full effect not named in the record; potentiation, % at 8.33 µM; hit rate 0.02% among 320,000; active means potentiation above 80%; inconclusive means 30% to 80%; inactive means below 30%; note: 0% is about no effect
Target sequence (Q8NER1 whole entry, looked up): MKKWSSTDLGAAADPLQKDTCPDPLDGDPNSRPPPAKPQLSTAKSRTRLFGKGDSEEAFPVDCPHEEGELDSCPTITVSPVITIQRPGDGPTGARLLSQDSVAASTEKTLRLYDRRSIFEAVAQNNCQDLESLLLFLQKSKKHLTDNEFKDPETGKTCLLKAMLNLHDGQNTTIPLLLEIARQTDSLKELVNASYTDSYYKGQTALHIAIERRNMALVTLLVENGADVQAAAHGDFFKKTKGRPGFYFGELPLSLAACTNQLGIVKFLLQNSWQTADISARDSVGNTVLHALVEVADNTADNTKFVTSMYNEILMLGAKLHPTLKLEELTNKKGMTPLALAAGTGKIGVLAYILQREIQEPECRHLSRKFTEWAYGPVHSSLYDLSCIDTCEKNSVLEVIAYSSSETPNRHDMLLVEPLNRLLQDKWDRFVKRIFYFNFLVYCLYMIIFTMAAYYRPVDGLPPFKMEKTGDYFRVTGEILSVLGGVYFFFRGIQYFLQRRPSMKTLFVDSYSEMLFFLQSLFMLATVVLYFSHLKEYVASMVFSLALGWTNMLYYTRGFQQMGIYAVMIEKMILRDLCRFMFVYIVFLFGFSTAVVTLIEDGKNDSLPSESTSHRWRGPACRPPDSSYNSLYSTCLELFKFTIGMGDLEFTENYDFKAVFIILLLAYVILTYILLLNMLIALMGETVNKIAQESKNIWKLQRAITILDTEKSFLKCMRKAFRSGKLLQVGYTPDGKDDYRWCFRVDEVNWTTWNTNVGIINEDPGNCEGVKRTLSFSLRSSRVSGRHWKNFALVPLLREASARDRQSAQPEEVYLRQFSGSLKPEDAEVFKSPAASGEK
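TRPV1-expressing cells were cultured overnight at 35.5C and loaded with Fluo-8 calcium dye for 40 to 90 min at room temperature. After a 10 s baseline, compound was added and calcium influx was read kinetically for 3 min (ex 480/em 520 nm).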
Sfp PPTase inh: qHTS Assay for Inhibitors of Bacillus subtilis Sfp phosphopantetheinyl transferase (PPTase) | 4'-phosphopantetheinyl transferase ffp (Bacillus subtilis), Q9F4F7 | Biochemical Sfp PPTase activity, qHTS | Potency, µM, without a hit: max response, negative = inhibition, usual class: inhibitors | hit rate 3.5% among 310,000 | AID 1490, 2009; active = well fitted inhibition curve with a large enough effect; inconclusive = small, poorly fitted or top-dose-only effect, or another doubt; inactive = no such curve, though single readings can be large or run the other way;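 note: the enzyme is Sfp with the accession as filed and its product quenches rhodamine fluorescence; potency is the fitted concentration of half-maximal effect; 0% = enzyme reaction without inhibitor and -100% = no enzyme wells; top concentration of the series not given in the record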
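Sfp 15 nM + cpd, 15 min RT; start w/ rhodamine-CoA 5 uM, BHQ-2-YbbR 12.5 uM (final); 50 mM Hepes pH 7.6, 10 mM MgCl2, 0.01% NP-40, 0.01% BSA; read 525/598 nm at 0 and 30 min.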
CtBP-E1A inh: qHTS Assay for Inhibitors of the CtBP/E1A Interaction; hit rate 0.49% among 340,000; AlphaScreen GST-E1A/His-CtBP binding, 1536-well; hits give low values; control for the full effect not named in the record; activity change, % (no concentration beside the values); in the data active means activity change below about -65%; inconclusive means about -30% to -65%; inactive means above about -30%; note: % is set by controls: 0 for no effect and ±100 for the full control effect; compound concentration not given in the record
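Homogeneous bead-based format: GST-tagged E1A captured on glutathione donor beads, His-tagged CtBP on nickel acceptor beads; compounds precede bead addition by 2 h at 37 °C.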
ClpP mod: qHTS Assay for Activators of ClpP | AID 651965, 2013 | hit rate 1.9% among 340,000 | ATP-dependent Clp protease proteolytic subunit (Bacillus subtilis (strain 168)), P80244 | purified B. subtilis ClpP, FRET peptide cleavage, 20 min | Potency, µM (top dose mostly 57.5 µM), inactives show at the top dose activity change, negative = active; active = well fitted falling curve with a large enough effect; inconclusive = small, poorly fitted or top-dose-only effect; inactive = no such curve, though single readings can be large or run the other way; note: potency is the fitted concentration of half-maximal effect; the source files actives as falling curves though it sought activators and does not explain the sign; nearly all actives have a fitted effect of over 65% in size; many hits overshoot -100%
Target sequence (P80244 whole entry, looked up): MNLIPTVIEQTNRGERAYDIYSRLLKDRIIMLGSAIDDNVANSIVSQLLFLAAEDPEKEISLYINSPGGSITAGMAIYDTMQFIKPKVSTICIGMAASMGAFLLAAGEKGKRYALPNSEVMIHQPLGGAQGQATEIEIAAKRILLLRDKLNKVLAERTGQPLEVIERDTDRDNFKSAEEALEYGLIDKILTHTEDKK
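FRET quenching reversal measured ClpP activation: 10 microg/mL B. subtilis ClpP at pH 8 with the FRET-FV decapeptide, read at 430 nm after 320 nm excitation. The 20-min minus 0-min signal was scaled between DMSO/no-enzyme wells and ADEP (5.8 microM final).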
Menin-MLL FL inh: qHTS Assay for Inhibitors Targeting the Menin-MLL Interaction in MLL Related Leukemias: Competition With Fluorescein Labeled MLL-derived Peptide | 290,000 tested, under 10 active | FP activity change, % at 61.4 µM | Fluorescence polarization, fluorescein-MLL peptide displacement from menin | AID 1766, 2009; inconclusive = falling polarisation curve, or a change in total fluorescence; inactive = total fluorescence flat and polarisation flat or rising; no compound was filed as active; the % refers to the polarisation; negative = inhibition;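 note: % of control where 0% means no effect; inhibitors lower the polarisation; unlabelled MLL peptide was the positive control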
gsp agonist: qHTS for Agonist of gsp, the Etiologic Mutation Responsible for Fibrous Dysplasia/McCune-Albright Syndrome: qHTS; hit rate 0.13% among 340,000; gsp mutant cells, cAMP HTRF, 30 min; control for the full effect not named in the record; Potency, µM (series often up to 76.9 µM), without a hit: at the top dose activation (cAMP increase), actives largely listed as activators; active = well fitted activation curve with a large enough effect; inconclusive = small, poorly fitted or top-dose-only effect, or another doubt; inactive = no such curve, though single readings can be large or run the other way; cell line not stated here;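 note: phosphodiesterase inhibitor Ro 20-1724 added with compounds to block cAMP breakdown; potency is the fitted concentration of half-maximal effect; nearly all actives have a fitted effect of over 60% in size; about a fifth of the inactives were tested at one dose only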
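Cells in DMEM/10% FBS with G418 were pretreated with compounds in DMSO plus […] (300 uM stock) for 30 min at 37C. cAMP was measured by HTRF (cAMP-d2 plus anti-cAMP antibody-K) after 30 min at room temperature.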
* = called active by the depositor; ? = inconclusive; . = no result given; & = joins results of further samples; [ ] = another dose, or the depositor's remark. Not all compounds are listed (hit frequency here may not be typical).

SMILES	gsp antagonist	TRPV1 potentiator	Sfp PPTase inh	CtBP-E1A inh	ClpP mod	Menin-MLL FL inh	gsp agonist
CC(C)n1cc(C(=O)N(CC(=O)NC(C)(C)C)Cc2ccccc2)cn1	-9%	20	4%	2	-0.6%	2.9	-2%
C=CCn1c(O)c(/C=C/C=Nc2ccccc2)c(=O)[nH]c1=O	-4%	9	15%	10	?	.	-35%[inhibitor]
c1coc(CNCCc2c[nH]c3ccccc23)c1	1%	-1	4%	-7	.	-1.8	14%
C/C(=N\NP(=S)(c1ccccc1)c1ccccc1)c1ccc(O)cc1O	-9%	-13	-20%	-5	.	2.8	11%[15.4 µM]
CCC1(C)CC(C(N)=S)CCO1 (stereo unspecified)	-3%	3	4.5µM*	3	1.0%	-4.9	8%[15.4 µM]
COc1cc(Br)cc(CN2CCN(C)CC2)c1O	11%	5	2%	7	-0.7%	-1.1	-12%
CN1[C@@H]2CCC[C@H]1CC(=O)C2	4%	.	17%	2	1.4%	-0.7[24.8 µM]	.
CCC(=NCCN1CCOCC1)c1c(O)n(-c2ccccc2C)c(=O)[nH]c1=O	5%	3	-26%	2	-1.9%	-0.6	16%
C=C1[C@@H](C)[C@H]2[C@H](Cc3ccccc3)NC(=O)[C@]23OC(=O)/C=C/[C@H](O)CCC[C@@H](C)C/C=C/[C@H]3[C@@H]1O	7%	-7	-20%&-3%&-8%	7	0.7%	-5.5&-0.4	.
C=CCn1c(O)c(C(C)=NCCc2ccccc2)c(=O)[nH]c1=O	1%	-20	-3%	2	-2.4%	-2.3	7%
CCC(=O)Nc1cccc(-c2nnc(SCC(=O)NCc3ccco3)n2C)c1	5%	-2	-12%	-13	-2.2%	4.1	-55%[inhibitor]
CN1CCC(OC(=O)c2cccc(F)c2)CC1	4%	-2	14%	.	-2.9%	3.3	-5%
CCCC[n+]1cc(/N=C(\[O-])OC)on1	12%	1	8%	-2	2.3%	4.4	20%
COc1ccc(-c2ccc(OC)c(OC)c2OC)cc1	0%	.	.	-3	.	.	?
CCCCN1C(=O)/C(=C/C=C/c2ccco2)C(=O)NC1=S	12%	-1	28µM*	-10	.	?	-2%[15.4 µM]
O=[N+]([O-])c1ccc(N2CCNCC2)cc1N1CCCCCC1	0%	?	-6%	-17	.	0.1	6%[15.4 µM]
O=C(O)COc1ccc(Cl)cc1Cl	12%	.	21%	0	1.0%	-4.2	-47%[inhibitor]
COc1cc(CN=C(C)c2c(O)n(C3CCCCC3)c(=O)[nH]c2=O)cc(OC)c1	-2%	.	-1%	1	.	10	-2%[15.4 µM]
OCCNc1c2c(nc3ccccc13)CCCC2	19%	7	12%	0	0.9%	3.6	-6%
CCCCOc1ccc(CN2CCN(CC)CC2)cc1	15%	7	16%	-3	1.1%	3.7	11%
CCn1c(O)c(/C=N/NC(=O)c2ccncc2)c(=O)n(CC)c1=S	6%	26	79µM*	.	-5.3%	2.1	14%
Cc1cccc(Cn2cc(C=O)c3ccccc32)c1	1%	?	-8%	5	0.8%	8.0	-7%
O=[N+]([O-])c1ccc(CNCCc2ccccc2)cc1	11%	-5	-19%	.	1.6%	-5.4	-41%[inhibitor]
O=C1C(=Cc2ccccc2)N2CCC1CC2	19%	.	.	9	.	.	-13%
O=C(c1ccc(F)cc1)N1CCC2(CC1)OCCO2	5%	-11	5%	.	-1.0%	-2.4	1%
The list goes on.
SMILES	gsp antagonist	TRPV1 potentiator	Sfp PPTase inh	CtBP-E1A inh	ClpP mod	Menin-MLL FL inh	gsp agonist
COc1ccc(CCNCc2sccc2C)cc1OC	-14%	-1	8%	-4	-0.5%	4.7	18%
Cc1cc(N(CCCl)CCCl)ccc1C=Cc1ccncn1	-10%	.	.	18	.	.	?
Cc1[nH]c2ccccc2c1CCN	3%	.	.	-6	-6.1%	.	3%
CN1C(=O)N(C)C(=O)C2(Cc3ccccc3N3CCCC32)C1=O (stereo unspecified)	2%	-1	-9%	3	.	-8.5	-17%[15.4 µM]
Cc1cccc(-n2c(O)c(C=Nc3ccc(S(N)(=O)=O)cc3)c(=O)[nH]c2=O)c1	9%	-3	-5%	-17	.	5.1	8%
Nc1nc(N)c2cnnn2n1	-9%	.	.	-3	.	.	25%
CCOc1ccc(OCC)c(NC(=O)CN2CCN(c3ccc(C)cc3C)CC2)c1	-10%	4	32µM*	-1	-0.4%	1.3	14%
O=C1NC(=O)C(Cc2ccccc2)(Cc2ccccc2)C(=O)N1Cc1ccccc1	-17%	.	.	-11	-5.1%	.	-37%[inhibitor]
COc1cccc(CN2CCN(c3ccc(F)cc3)CC2)c1OC	.	.	.	-8	0.3%	.	-43%[inhibitor]
Cc1cc(-c2cc(C)c(N)c(C)c2)cc(C)c1N	-10%	.	.	-25	-6.1%	.	.
CN(C(=O)Oc1ccc([N+](=O)[O-])cc1)c1ccccc1	11%	-1	24%	-4	-2.2%	0.4	-6%[15.4 µM]
O=c1c(-c2ccccc2)c(O)c2ccccc2n1-c1ccccc1	0%	26	11%	5	?	-1.4	9%[15.4 µM]
COC(=O)C1=C(c2ccc3ccccc3c2)C[C@@H]2CC[C@H]1N2C(=O)NC1CC1	1%	-4	.	10	1.5%	.	?
CC(=O)Nc1ccc(S(=O)(=O)NC(CC(=O)N2CCC3(CC2)OCCO3)C(C)C)cc1 (stereo unspecified)	14%	-31	8%	-2	0.8%	-1.5	-21%
Oc1ccc(-[n+]2c(-c3ccccc3)cc(-c3ccccc3)cc2-c2ccccc2)cc1	50µM*	-10	.	-8	3.2%	.	.
Cc1nc2ccccc2c(=O)n1-c1ccc(Cl)cc1Cl	7%	-3	4%	-8	-2.8%	1.9	-1%[15.4 µM]
COc1cccc(-n2cnc3sc(-c4ccccc4)cc3c2=O)c1	-6%	.	.	3	-0.6%	.	-43%[inhibitor]
CN(C)C(=O)Oc1ccc(NC(=O)N2CCOCC2)cc1	9%	?	20%	8	-0.6%	-3.2	-23%
Cc1ccc2c(c1)N(CCC(=O)N1CCC3(CC1)OCCO3)C(=O)C(C)O2 (stereo unspecified)	-9%	.	-1%	1	0.2%	0.9	-21%
O=C(Nc1cccc(Cl)c1)c1c(O)c2c(n(Cc3ccccc3)c1=O)CCCC2	.	3	22%	.	.	-3.4	.
NCCc1c(Cc2ccccc2)[nH]c2ccccc12	-2%	.	.	-24	.	.	-2%[15.4 µM]
CCC(=NCCO)c1c(O)n(C2CCCCC2)c(=O)[nH]c1=O	4%	2	12%	8	-0.4%	4.9	9%
COC(=O)C1=C(c2cccc(C#N)c2)C[C@@H]2CC[C@H]1N2C(=O)NCCNC(C)=O	-3%	0	.	3	0.4%	.	.
O=c1[nH]c(=O)n(-c2cccc3ccccc23)c(O)c1C=NCCCn1ccnc1	8%	8	15%	1	-3.5%	4.2	4%
COc1ccc(OC)c2c1CCC1NCCOC21 (stereo unspecified)	1%	3	-16%	3	-0.9%	.	?
Continuation:
SMILES	gsp antagonist	TRPV1 potentiator	Sfp PPTase inh	CtBP-E1A inh	ClpP mod	Menin-MLL FL inh	gsp agonist
COC(=O)N1C(c2ccccc2)C1c1ccccc1 (stereo unspecified)	-9%	-4	17%	4	.	0.2	-2%[15.4 µM]
Cn1c(O)c(/C=N/N2CCOCC2)c(=O)[nH]c1=S	9%	26	1%	7	-0.3%	?	-3%[15.4 µM]
CN1CCCN(C(=O)COc2ccc(F)cc2F)CC1	?	1	9%	-3	-0.3%	.	?
CCc1nc2ccc(Br)cc2c(=O)n1-c1ccccc1C(F)(F)F	?	.	.	2	-0.9%	.	?
O=C(C(=C1N(Cc2ccc(Cl)nc2)CCN1Cc1ccc(Cl)nc1)[N+](=O)[O-])C(Cl)Cl	-8%	-16	7%	.	-0.6%	-4.5	9%
CCC/C=N/O	-5%	-4	.	7	-2.2%	.	.
O=[N+]([O-])c1ccccc1CNCCc1c[nH]c2ccccc12	1%	0	-10%	-19	0.0%	0.9	-13%[15.4 µM]
C[C@]12CCC3C(CCC4=C/C(=N/OCC(=O)NC(CCC(=O)O)C(=O)O)CC[C@@]43C)C1CCC2O (stereo partly specified)	12%	13	14%	-21	.	3.7	15%
C=CCOC(=O)C1=C(C)OC(N)=C(C#N)[C@@]12C(=O)N(CC(N)=O)c1ccccc12	-16%	-3	6%	-1	1.1%	4.1	-10%
O=C(/C=C/c1ccccc1)N1Cc2ccccc2-n2nncc2C1	.	.	.	0	-2.1%	.	12%
C/C(=N\N1CCCCCC1)c1c(O)n(-c2ccccc2)c(=O)[nH]c1=O	-10%	0	5%	0	-1.2%	1.2	3%
O=C1NC(=O)C(=Cc2ccc(OCC(=O)N3CCOCC3)cc2)C(=O)N1	-9%	18	?	24	1.0%	.	5%
COc1cc(N2CCOCC2)ccc1/C=C1\C(=O)NC(=O)N(Cc2ccc3c(c2)OCO3)C1=O	-12%	19	?	-4	-18%	?	-3%[15.4 µM]
CCCC/C(C)=C/[C@@H](NP(=O)(c1ccccc1)c1ccccc1)c1ccccc1	-13%	15	-13%&-11%	-1	-1.6%	1.7&6.1	.
NNC(=O)CN1C(=O)CN=C(c2ccccc2)c2cc(Br)ccc21	-1%	6	0%	-1	.	3.6	11%[15.4 µM]
O=C(N/N=C/c1c(O)n(CCc2ccccc2)c(=O)[nH]c1=O)c1ccccc1O	-5%	26	8%	.	-24%	?	15%
O=C1C2(Cl)C3(Cl)C4(Cl)C(Cl)(Cl)C5(Cl)C3(Cl)C1(Cl)C5(Cl)C24Cl (stereo unspecified)	-7%	-1	.	-8	-0.5%	.	.

Source: PubChem (National Center for Advancing Translational Sciences (NCATS))
